Screening data (PubChem)
KCNQ2 pot – potentiators of rat KCNQ2 potassium channel; O88943; CHO-K1 KCNQ2, FluxOR thallium flux fluorescence; stronger effect = higher value; B-score at 10 µM; 310,000 compounds, 0.54% hits; AID 2239;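 active means fluorescence ratio B-score at least 3 SD of library B-scores, with initial fluorescence B-score within 3 SD, cut at about 5.3 in these data; same plate scores as AID 2156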;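 further: B-score of peak minus minimum over baseline fluorescence ratio after K+ and Tl+ stimulus; positive B-score means potentiation of KCNQ2 with more thallium influx and brighter signal; only the inactives scoring about 0 or higher are listed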
Target sequence (O88943 whole entry, looked up): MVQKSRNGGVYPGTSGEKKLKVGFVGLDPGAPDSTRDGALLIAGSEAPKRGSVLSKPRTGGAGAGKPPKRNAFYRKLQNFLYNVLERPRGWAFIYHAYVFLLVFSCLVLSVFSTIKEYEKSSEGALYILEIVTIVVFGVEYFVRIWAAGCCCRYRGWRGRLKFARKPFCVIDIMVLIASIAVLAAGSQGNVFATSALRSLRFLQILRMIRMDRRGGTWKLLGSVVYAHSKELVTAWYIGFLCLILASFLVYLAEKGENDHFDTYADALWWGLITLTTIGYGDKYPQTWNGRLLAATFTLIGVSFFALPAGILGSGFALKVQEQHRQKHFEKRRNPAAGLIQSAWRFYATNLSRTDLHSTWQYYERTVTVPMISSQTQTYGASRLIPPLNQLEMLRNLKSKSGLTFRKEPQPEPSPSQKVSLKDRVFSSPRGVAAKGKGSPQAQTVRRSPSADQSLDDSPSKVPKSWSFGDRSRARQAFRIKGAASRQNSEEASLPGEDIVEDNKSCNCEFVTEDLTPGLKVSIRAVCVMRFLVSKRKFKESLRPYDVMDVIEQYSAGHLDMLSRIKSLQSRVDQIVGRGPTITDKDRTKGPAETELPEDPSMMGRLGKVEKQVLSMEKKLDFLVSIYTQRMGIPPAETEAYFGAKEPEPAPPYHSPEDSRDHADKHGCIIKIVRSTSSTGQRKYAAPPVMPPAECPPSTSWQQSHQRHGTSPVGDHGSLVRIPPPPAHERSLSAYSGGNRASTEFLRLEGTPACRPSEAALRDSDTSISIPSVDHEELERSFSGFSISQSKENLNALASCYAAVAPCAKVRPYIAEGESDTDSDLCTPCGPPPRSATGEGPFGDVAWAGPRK
KCNQ2 pot baseline – also measured in KCNQ2 pot; calls as there; B-score; compound at 10 µM; measured here: initial fluorescence intensity artifact check;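 brightness before thallium and not channel activity; 0 = typical well and far values either way flag optical interference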
* hit, by the source's call.

SMILES	KCNQ2 pot	KCNQ2 pot baseline
Cc1ccc(-c2ccc(S(=O)(=O)Nc3cccnc3)cc2)cc1	1.3	0.68
CCOc1ccc(OCC)c(NC(=O)C2CCCN(c3nc(C)cc(C)n3)C2)c1 (configuration not stated)	1.6	1
COc1ccc(F)cc1S(=O)(=O)n1nnc2ccccc21	0.29	-0.25
O=C(CC12CC3CC(CC(Br)(C3)C1)C2)NC1=NCCS1	1.7	-1.7
O=C(NCc1ccc2c(c1)OCO2)c1ccccn1	0.02	0.67
O=C(CSc1nnnn1C1CCCC1)N1CCOCC1	1	0.82
CCOc1ccc(Nc2nc(Cc3nnc(SCC(=O)c4ccc(C)cc4)o3)cs2)cc1	1.8	-0.91
O=C(Cn1c(COc2ccccc2)nc2ccccc21)Nc1cc(Cl)c(Cl)cc1Cl	0.01	4.6
O=C(C1=NN[C@@H]2C(=O)N(c3cccc(C(F)(F)F)c3)C(=O)[C@H]12)C(c1ccccc1)c1ccccc1	0.37	0.05
Cc1ccc(NC(=O)c2cc(S(=O)(=O)N3CCOCC3)cn2C)c(C)c1	1.4	-1.1
Cc1ccc(NS(=O)(=O)c2ccc(OCC(=O)NCc3ccco3)cc2)cc1	0.49	0.28
COCC(=O)NNC(=O)c1ccccc1OC	0.06	0.85
Cc1cc(=O)oc2c1c(C)nn2-c1nn[nH]n1	0.54	-0.66
CCOC(=O)C1CCCN(C(=O)c2cc3cc(Br)ccc3oc2=O)C1 (configuration not stated)	0.22	-0.01
CC1CN2C(c3ccc(Cl)cc3)=CSC2=N1 (configuration not stated)	2.5	0.74

The list goes on, starting with the last four of the part before.
SMILES	KCNQ2 pot	KCNQ2 pot baseline
COCC(=O)NNC(=O)c1ccccc1OC	0.06	0.85
Cc1cc(=O)oc2c1c(C)nn2-c1nn[nH]n1	0.54	-0.66
CCOC(=O)C1CCCN(C(=O)c2cc3cc(Br)ccc3oc2=O)C1 (configuration not stated)	0.22	-0.01
CC1CN2C(c3ccc(Cl)cc3)=CSC2=N1 (configuration not stated)	2.5	0.74
CCCCOC(=O)Nc1cccc(C(=O)OCC)c1	0.78	0.2
O=C(COC(=O)c1cc(-c2cccnc2)nc2ccccc12)Nc1ccc(F)cc1F	1.3	1.5
COc1ccc(/C=N/NC(=O)c2ccc(-c3ccccc3)cc2)cc1O	0.91	1
OCCNc1nc(Nc2ccccc2Oc2ccccc2)nc(N2CCCC2)n1	0.63	-0.31
CC1CCCCC1NC(=O)c1ccncc1 (configuration not stated)	0.17	0
COc1ccc(CN(CC(=O)NCc2ccco2)C(=O)CCC(=O)Nc2nccs2)cc1	0.23	0.2
O=S(=O)(Nc1cccc(-c2cn3c(n2)SCC3)c1)c1cccs1	0.4	-0.56
CCn1c(SCC(=O)NNC(=S)Nc2ccccc2)nnc1-c1ccc(Cl)cc1	1.9	-0.21
COc1ccc(OC2C(=O)N(Cc3ccc4c(c3)OCO4)C2c2cccs2)cc1 (configuration not stated)	0.24	0.94
O=C(Cn1cnc2c(oc3ccccc32)c1=O)c1ccccc1	0.92	0.41
CCOC(=O)c1cc2sccc2n1CC(=O)O	1.6	-2.5
CCOC(=O)N1CCC(N2Cc3cccc(C(=O)N4CCN(c5cccc(Cl)c5)CC4)c3C2=O)CC1	0.86	0.4
CC(C)(C)c1ccc(C(=O)NC(=S)Nc2nc3c(s2)CCCC3)cc1	8.5*	0.24*
COc1cc(C(=O)Nc2ccc(S(=O)(=O)Nc3nccc(C)n3)cc2)c([N+](=O)[O-])cc1OC	0.01	-0.41
CC(=O)NCC(=O)OC(C)C(=O)Nc1ccc(C(C)=O)cc1 (configuration not stated)	1.5	0.67
O=C1OCc2cc(NS(=O)(=O)c3cccs3)ccc21	0.05	0.59
COc1cc(CNCCc2ccccc2F)ccc1OCc1ccc(Cl)nc1	0.04	1.4
CCN1C(=O)CSc2ccc(C(=O)NCc3ccc(OC)cc3)cc21	0.62	-0.24
CC1(C)CC(NC(=O)c2cccc([N+](=O)[O-])c2)CC(C)(C)N1	1.2	0.09
CCCn1c2ccccc2c2cnn(CC(=O)NC(C)CC)c(=O)c21 (configuration not stated)	2.8	0.32
COc1cc(/C=C2\SC(=O)N(CC(=O)Nc3cccc(C)c3)C2=O)ccc1OC(C)C(=O)O (configuration not stated)	0.44	1.2
O=C(c1ccc(F)cc1)N1CCCC(C(=O)N2CCCCC2)C1 (configuration not stated)	1.2	0.02
CCN1CCCC1CNC(=O)Cn1cnc2sc(C)c(S(=O)(=O)N3CCC(C)CC3)c2c1=O (configuration not stated)	0.06	0.98
Cn1c(=O)cc(SCC(=O)NCC2COc3ccccc3O2)c2ccccc21 (configuration not stated)	1.2	0.16
CC(O)c1cccc(NC(=O)CCC(=O)O)c1 (configuration not stated)	2	0.11
c1ccc(CCN(Cc2ccccc2)C2CCN(C3CCCC3)CC2)cc1	0.54	-0.85
Cc1cccc(NC(=O)c2ccc3c(c2)OCCO3)c1C	0.46	-0.46
Cc1c(C(=O)C(=O)N2c3ccccc3CC2C)c2ccccc2n1C (configuration not stated)	0.4	-0.31
c1ccc(Nc2nc(N3CCOCC3)nc(N3CCOCC3)n2)cc1	1	-1.7
O=C(Nc1ccc(Br)cc1)c1ccc(F)c(S(=O)(=O)N2CCN(c3ccccn3)CC2)c1	1.4	1
CCCn1c(N)c(N2CCCCC2)c(=O)n(CC(=O)Nc2ccccc2)c1=O	2.2	0.01
C=CCn1cnc2c(nnn2-c2cc(C)cc(C)c2)c1=O	1.6	-0.01
CC(=O)Nc1ccc(S(=O)(=O)NNC2=NS(=O)(=O)c3ccccc32)cc1	0.22	-1.4
Cn1cc(Cl)c(C(=O)OCC(=O)Nc2ccccc2)n1	0.27	-0.78
Cc1c(O)ccc2c(CN3CCN(C/C=C/c4ccccc4)CC3)cc(=O)oc12	0.31	-0.39
COc1ccc2cc(OC)c(C(=O)N3CCOCC3)cc2c1	0.55	2
CCC1CCc2sc(C(=O)OCC(=O)N(CCOC)c3c(N)n(Cc4ccccc4)c(=O)[nH]c3=O)cc2C1 (configuration not stated)	0.32	-3.4
Cc1occc1C(=O)N/N=C/c1cccs1	0.75	0.08
CN(C(=O)COc1ccccc1)c1nc(-c2ccc(F)cc2)cs1	0.02	0.64
COc1ccccc1NC(=O)Cn1cnc2sc(C(=O)Nc3ccc(OC)c(OC)c3)c(C)c2c1=O	1.2	2.8
CSc1nc2c(c(=O)n1-c1ccc(C)cc1)SCC2	1.4	0.62
C=CCSc1nc2c(cc1C#N)CCC2	0.77	-0.01
COc1ccc(C2CC23N=C(c2ccccc2)OC3=O)cc1 (configuration not stated)	0.24	-1.3
Cc1ccc(N2C(=O)N(CC(=O)Nc3cc(Cl)ccc3C)C(=O)C2C)cc1 (configuration not stated)	1.4	-0.27
CCCOC(=O)c1c(NC(=O)CCCn2nc([N+](=O)[O-])c(Cl)c2C)sc(C(=O)OC)c1C	0.22	-3.5
CC(C)COCc1ccc(O)c2ncccc12	7.7*	-0.02*
CCSc1nnc(-c2ccc(OC)cc2)o1	0.06	-1.8
COc1ccccc1NC(=O)CNC(=O)c1ccccc1	0.55	0.18
COc1cc(/C=N/NC(=O)c2ccccn2)ccc1OC(=O)c1ccccc1Br	0.15	-2
Cc1sc2ncnc(SCC(=O)N(C(C)C)C(C)C)c2c1C	0.61	-1.5
O=C(Oc1cccc(OC(=O)N2CCCCC2)c1)N1CCCCC1	2	0.67
COc1ccc2cc(CN(CCCN3CCOCC3)Cc3nnnn3C3CCCCC3)c(=O)[nH]c2c1	0.66	-0.16
CCc1nc(SCC#N)c(C#N)cc1C	0.76	1.4
COc1ccc(OC)c(Nc2nc3ccc(C)cc3n3cnnc23)c1	0.85	-0.37
Cc1ccccc1Nc1nc(=O)c2cc([N+](=O)[O-])ccc2s1	0.97	-0.28
CCOC(=O)Nc1cc(Br)c2c(c1)OCCO2	0.06	0.04
Cc1ccccc1OCC1CN(CN2CCOCC2)C(=O)O1 (configuration not stated)	1.4	1.2
O=C(O)COc1ccccc1/C=N/NC(=O)CSc1nc2ccccc2c(=O)n1-c1ccccc1	0.15	-1.2
O=C(COC(=O)c1cc(S(=O)(=O)N2CCOCC2)cs1)c1ccccc1	1	-0.36
COc1ccc(-n2c(SCC(=O)Nc3ccc(Cl)cc3)nc(O)c(Cc3ccccc3)c2=O)cc1	1.7	-0.79

(next part)
SMILES	KCNQ2 pot	KCNQ2 pot baseline
COc1ccc(-c2csc(NC(=O)CN3C(=O)C4CC=CCC4C3=O)n2)cc1OC (configuration not stated)	2.7	2.5
CCn1cc(Cl)c(C(=O)Nc2cc(C(=O)OC)cc(C(=O)OC)c2)n1	0.67	-1.2
COC(=O)c1cn(C)c2ccc(S(=O)(=O)N3CCCCC3)cc2c1=O	0.02	-0.21
CCCCc1nc(S(=O)(=O)c2ccc(Cl)cc2)c(N2CCOCC2)o1	1.6	-2.8
Cc1ccsc1/C=N/NC(=O)c1cc(-c2ccncc2)nc2ccccc12	1.1	-0.08
CCn1c(CC(=O)Nc2ccc(C)c(Cl)c2)nnc1SCc1ccc(Cl)c(Cl)c1	0.77	-0.81
Cc1nn(Cc2ccccc2)c(C)c1NC(=O)CCC(=O)O	0.38	1.8
C=CCn1cccc(/C=C/C(=O)c2ccc(C(C)(C)C)cc2)c1=S	0.75	-0.2
COc1ccc(/C=N/Nc2nc3ccccc3s2)cc1O	1.5	-0.15
CCCn1c(C)cc(C(=O)COC(=O)c2ccc(Cl)c(S(=O)(=O)N3CCCC3)c2)c1C	0.05	-0.15
O=C(Cc1ncc(C(F)(F)F)cc1Cl)N1CCN(c2cccc(Cl)c2)CC1	2.8	-1.7
COc1ccc(S(=O)(=O)Cc2ccc(C(=O)NCC(OC)OC)o2)cc1	0.5	0.38
Cc1ccc(S(=O)(=O)N2CCN(C(=O)CCC(=O)NCCc3ccc(S(N)(=O)=O)cc3)CC2)c(C)c1	0.44	2
O=C(Nc1cc(Br)c(O)c(Br)c1)c1cccc(NC(=O)c2ccco2)c1	2.8	-0.66
O=C(CSc1nccc(=O)[nH]1)Nc1ccccc1Sc1ccccc1	0.06	1.3

4 compounds picked at random from the list so far:
SMILES	KCNQ2 pot	KCNQ2 pot baseline
CCCCc1nc(S(=O)(=O)c2ccc(Cl)cc2)c(N2CCOCC2)o1	1.6	-2.8
CC(=O)NCC(=O)OC(C)C(=O)Nc1ccc(C(C)=O)cc1 (configuration not stated)	1.5	0.67
O=C(Cn1c(COc2ccccc2)nc2ccccc21)Nc1cc(Cl)c(Cl)cc1Cl	0.01	4.6
O=C(C1=NN[C@@H]2C(=O)N(c3cccc(C(F)(F)F)c3)C(=O)[C@H]12)C(c1ccccc1)c1ccccc1	0.37	0.05

Among those listed so far, four have a nitro group on carbon.
SMILES	KCNQ2 pot	KCNQ2 pot baseline
COc1cc(C(=O)Nc2ccc(S(=O)(=O)Nc3nccc(C)n3)cc2)c([N+](=O)[O-])cc1OC	0.01	-0.41
CC1(C)CC(NC(=O)c2cccc([N+](=O)[O-])c2)CC(C)(C)N1	1.2	0.09
CCCOC(=O)c1c(NC(=O)CCCn2nc([N+](=O)[O-])c(Cl)c2C)sc(C(=O)OC)c1C	0.22	-3.5
Cc1ccccc1Nc1nc(=O)c2cc([N+](=O)[O-])ccc2s1	0.97	-0.28

(further entries)
SMILES	KCNQ2 pot	KCNQ2 pot baseline
CCc1ccc(N2CCN(CCNC(=O)Nc3ccc(OC)cc3)CC2)cc1	0.51	-0.93
CCc1nnc(NC(=O)CN2C(=O)c3ccccc3S2(=O)=O)s1	1.5	-0.78
COc1ccc(Cc2nc3ccc(C(=O)NC(C)c4cnn(C)c4)cc3o2)cc1 (configuration not stated)	0.75	-0.01
O=C(CSc1ccc2c(c1)OCCO2)Nc1cccnc1	0.68	0.11
CNC(=O)CSc1nc2nc(C)cc(C)n2n1	1.1	-0.14
CCOCCCN1CC(C(=O)NCCc2ccccc2)CC1=O (configuration not stated)	0.77	-0.03
CCC(C)NC(=O)Nc1ccc(C)cc1C (configuration not stated)	1.2	0.22
COc1ccc(NC(=O)CC(C)(C)C)c([N+](=O)[O-])c1	0.03	2.3
O=C1NN(c2ccccc2)C(=O)C2C1C1C=CC2C12CC2 (configuration not stated)	0.01	-0.99
CCOC(=O)C1=C(C)C(c2ccc(OC)cc2)NC(=O)N1 (configuration not stated)	0.83	0.03
C=CCn1cnc2c(nnn2-c2ccc(OC)c(OC)c2)c1=O	0.83	-1.1
CCOC(=O)C1CCN(Cc2cn[nH]c2-c2ccccc2)CC1	0.52	-0.11
CN1CCN(Cc2nc3ccccc3c(=O)n2Cc2nc(-c3ccccc3F)cs2)CC1	0.44	-0.65
COc1cccc(-c2nnc3sc(-c4ccc(C)cc4)nn23)c1	0.34	-3.6
CC(=O)N1c2ccc(S(=O)(=O)N(C)CC(=O)NC(C)c3ccccc3)cc2CC1C (configuration not stated)	1.1	0.52
CCOC(=O)C1CCCN(C(=O)C2CCN(S(=O)(=O)c3cnc[nH]3)CC2)C1 (configuration not stated)	1.4	-1
CCC(=O)Nc1cccc(C2=NOC3(C2)C[C@H](C(N)=O)N(C(=O)Cc2ccc([N+](=O)[O-])cc2)C3)c1 (some centres not stated)	1.3	-0.68
S=C1NCCOCCOCCOCCOCCN1	0.69	-0.21
O=C(NN1C(=O)/C(=C\c2cccnc2)SC1=S)c1ccco1	0.83	-0.14
O=C(Nc1ccc2ccccc2c1)c1ccc(Br)o1	0.77	-1.9
Cc1nnc(-c2cnn(C)c2N)n1CCCN(C)C	0.6	-1.1
COc1cc(C)c(Cl)cc1S(=O)(=O)n1ccnc1C	0.99	-0.57
Cc1ccccc1Nc1cc(=O)oc2ccccc12	1.3	-0.18
CCN(CC)CCCN=C(C)C1=C(O)c2ccccc2C1=O	0.87	1.1
COC(=O)Cn1c(C)nc(=O)c(-c2ccccc2)c1C	0.22	-1.8
c1ccc(-c2ccccc2OCCCN2CCCCCC2)cc1	1.2	-2.3
O=C(c1ccccc1)N1CCN(c2n[nH]c(=O)[nH]c2=O)CC1	0.02	-0.59
COc1ccc2nc(C)c3c(c2c1)OC(C)C3 (configuration not stated)	0.71	-0.22
Cc1cccc(C(=O)NC2CC3CCCC(C2)N3C(=O)Nc2ccccc2)c1 (configuration not stated)	3	0.45
COc1ccc(-c2csc(-c3ccc(O)cc3)n2)cc1	2.1	0.22

These rows are one share of the data; count on the stated rates, not on these rows.
